Screening results as filed in PubChem BioAssay.
PrP 5UTR inh = inhibition of PrP 5' UTR reporter expression | inhibition, % (test concentration not listed) | cell-based PrP 5' UTR mRNA reporter, plate reader | hit rate 0.35% among 340,000 | AID 488862;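 active = every replicate at 50% or more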;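 note: 0 = median of the neutral control wells; tested in H4 reporter cells; numbers are from one replicate; inactives centre near -14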
Autofluor counter = compound fluorescence in toxin protease inhibitor counterscreen; AID 624483; compound autofluorescence counterscreen, microsphere flow cytometry; stronger effect = higher value; fluorescence intensity (concentration not given with the values); hit rate 3.1% among 360,000;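 active = at least 3 SD above the mean of all compounds, about 16000 in these data; inconclusive = too few beads counted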;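 note: 100 nL of 1 mM stock went into each well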
Mtb hypoxia inh = inhibitors of hypoxia-regulated fluorescent reporter in Mycobacterium tuberculosis; M. tuberculosis hypoxia-regulated fluorescent reporter, fluorescence; fluorescence inhibition, % (no concentration beside the values); hit rate 0.1% among 300,000;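 active = 35 to 45% if threefold the growth effect, above 45% if 1.5-fold the growth effect; inactive = the rest, general growth blockers included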;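 note: wells of about 50 µL received 100 nL stock; 0% = vehicle wells and 100% = reference inhibitor wells; whole bacteria with a GFP reporter of the hypoxia response; strong numbers were not always called active; many hits fall short of the cut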
BJeLR lethal = kills HRASV12-expressing BJeLR cells. AID 1554. inhibition, % (no concentration beside the values). hit rate 0.17% among 300,000. BJeLR (HRASV12) viability, CellTiter-Glo ATP luminescence, 48 h; reference of the scale not given here;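 active = replicate mean above 50%; inconclusive = above 50% but judged a plate artefact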;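 note: 50 nL library stock added to about 25 µL; numbers are from one replicate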
Sa RN4220 lethal = kills Staphylococcus aureus RN4220. S. aureus RN4220 growth, OD600, 16 h. hit rate 0.33% among 330,000. inhibition, % (concentration not given with the values);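 active = z-score of -3 or lower and OD600 up to 0.18 on both plates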;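 note: plate controls were untreated cells for no effect and reference antibiotic for full effect; stock transfer was 100 nL into about 80 µL; one replicate is shown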
ugtP null kill = compounds lethal to S. aureus RN4220 ugtP deletion mutant. growth inhibition, % (concentration not given with the values). OD600 growth, 16 h; some inactives read as strong as hits. hit rate 0.54% among 330,000. AID 1259309;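 active = z-score under -3 and OD600 up to 0.15 on both plates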;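 note: plate controls were untreated wells for no effect and antibiotic for full effect; wells of about 80 µL received 100 nL stock; the first replicate is given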
Mtb hypoxia inh growth = recorded beside Mtb hypoxia inh, whose call it bears; growth inhibition, %; measured here: M. tuberculosis growth (absorbance);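 0% = vehicle and 100% = reference antibiotic; read after six days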
* marks the source's active call; other numbers are inactive results; ? = inconclusive; · = no result given.

SMILES	PrP 5UTR inh	Autofluor counter	Mtb hypoxia inh	Mtb hypoxia inh growth	BJeLR lethal	Sa RN4220 lethal	ugtP null kill
CN(C)CCCNc1nc2sc3c(c2c(=O)n1CCc1ccccc1)CCCCC3	-11	5916	9	7	13	-3.5	10
COC(=O)C1=C(c2ccc(OC)c(OC)c2)CC2CCC1N2C(=O)NC1Cc2ccccc2C1 (centres undefined)	·	·	18	8	·	4.0	8
CCCCc1c(C)nc2c(OC)cccc2c1SCCC(=O)O	-14	2095	·	·	3	4.2	-9
Cc1ccc(C)c(N2CCN(C(=O)CCCn3c(=O)c4cccn4c4cccnc43)CC2)c1	-9	4438	1	-2	1	-3.3	-9
CC(C)c1ccc(OCC(=O)N2CCCCCC2)c(Br)c1	-15	2437	3	8	-6	9.1	19
Cc1cc(NC(=O)c2cnn3c(C(F)F)cc(C4CC4)nc23)no1	-4	3536	·	·	1	0.5	2
CCCCNC(=O)CCn1c(=O)c2ccccc2n(CC(=O)NCCc2ccc(OC)c(OC)c2)c1=O	-1	3295	12	9	5	1.0	8
Cn1c(N)c(C(=O)CSc2nnc(-c3c[nH]c4ccccc34)n2C2CC2)c(=O)[nH]c1=O	·	4819	11	11	·	-0.2	3
O=C(Nc1ccccc1)NC1(C(=O)NCc2ccc3c(c2)OCO3)CCCCC1	10	22677*	-8	8	5	9.1	100*
CCN(CC)CCOc1ccc2c(c1)C(=NNC(=O)c1ccccn1)c1cc(OCCN(CC)CC)ccc1-2	-15	1933	46*	20*	·	9.4	10
CCOc1ccccc1NC(=O)CSCC(=O)Nc1ccccc1	-2	8148	4	3	4	8.1	7
CN1CCN(C(=S)Nc2cccc(Cl)c2)CC1	-14	2444	13	4	-2	0.6	6
Cc1c(NC(=O)C(=O)/C=C(/O)c2ccc(Cl)cc2)c(=O)n(-c2ccccc2)n1C	·	·	18	6	·	4.1	3
COc1ccc(-c2nc3ccc(C(=O)N4CCC5(CC4)OCCO5)cc3nc2-c2ccc(OC)cc2)cc1	-12	4336	-4	-1	8	-3.9	-6
CCCc1cc(=O)oc2c(CN(CC)CC)c(O)c(Cl)cc12	-2	3508	18	8	-3	12	6
Cc1nc2ccccc2c(=O)n1/N=C/c1cc(Br)ccc1O	-15	3672	·	·	2	·	·
COc1cc(Br)c(Br)c(Br)c1N	-17	5353	4	-6	-7	4.7	12
CC1CCN(C(=O)C2CCCN(c3ncnc4c3nc3n4CCCCC3)C2)CC1 (centres undefined)	8	5381	13	7	0	6.2	1
COc1ccccc1NC(=O)C(=NO)C(C)=NO	·	·	-2	-3	·	5.8	16
CCn1c(/C=C/c2ccc(O)cc2)nc2ccccc2c1=O	-13	3444	3	-4	-15	7.4	-4
Cc1ccccc1C(=O)NC(=S)Nc1ccc(N2CCOCC2)cc1	-20	4341	14	12	-1	38	4
Cc1nc2ccccn2c1-c1ccnc(=S)[nH]1	-8	3855	-10	2	-2	7.5	25
CCN(CC)C(=O)CC(c1cc(OC)c(OC)c(OC)c1)c1c(OC)cc(OC)c2c(-c3ccccc3)cc(=O)oc12 (centres undefined)	-12	3864	4	11	1	-5.8	16
CCc1sc(NS(C)(=O)=O)nc1-c1ccccc1	-12	23262*	8	7	3	19	-4
COC(=O)c1c[nH]n2c(=O)cc(C)nc12	-48	23157*	5	6	7	2.9	1

As a working copy, 5 of the compounds above.
SMILES	PrP 5UTR inh	Autofluor counter	Mtb hypoxia inh	Mtb hypoxia inh growth	BJeLR lethal	Sa RN4220 lethal	ugtP null kill
Cc1c(NC(=O)C(=O)/C=C(/O)c2ccc(Cl)cc2)c(=O)n(-c2ccccc2)n1C	·	·	18	6	·	4.1	3
COc1ccc(-c2nc3ccc(C(=O)N4CCC5(CC4)OCCO5)cc3nc2-c2ccc(OC)cc2)cc1	-12	4336	-4	-1	8	-3.9	-6
CCCc1cc(=O)oc2c(CN(CC)CC)c(O)c(Cl)cc12	-2	3508	18	8	-3	12	6
Cc1nc2ccccc2c(=O)n1/N=C/c1cc(Br)ccc1O	-15	3672	·	·	2	·	·
COc1cc(Br)c(Br)c(Br)c1N	-17	5353	4	-6	-7	4.7	12

Returning to the listing; the two compounds before the break are reprinted first.
SMILES	PrP 5UTR inh	Autofluor counter	Mtb hypoxia inh	Mtb hypoxia inh growth	BJeLR lethal	Sa RN4220 lethal	ugtP null kill
CCc1sc(NS(C)(=O)=O)nc1-c1ccccc1	-12	23262*	8	7	3	19	-4
COC(=O)c1c[nH]n2c(=O)cc(C)nc12	-48	23157*	5	6	7	2.9	1
Cc1ccc(CN2C(=O)CCC2C(=O)NCCN2CCOCC2)cc1 (centres undefined)	-11	3195	3	1	0	3.6	-6
COc1cccc(C(=O)NC(=S)Nc2ccc3c4c(cccc24)CC3)c1	-23	4390	·	·	-2	-13	79
CCOc1ccc2nc(-c3ccccc3)[nH]c2c1	-101	9047	6	4	-2	9.6	0
Cc1nn(Cc2ccccc2)c(C)c1C(=O)OCC(=O)Nc1cccc(S(N)(=O)=O)c1	-28	4330	4	5	-8	11	4
Cc1cc(C)cc(C(=O)NC(=S)Nc2ccc(-c3cc4ccccc4oc3=O)cc2)c1	16	2379	7	-1	-4	8.2	20
CC(C)(O)[C@@H]1CC(=O)[C@]2(C)[C@H](CC[C@@]3(C)[C@H](c4ccoc4)OC(=O)[C@H]4O[C@]432)[C@@]1(C)/C=C\C(=O)O	-24	3950	11	0	·	-12	0
O=C(NCCN1CCOCC1)c1ccccc1-c1ccccc1	-14	3527	8	2	1	2.6	6
S=c1[nH]cc(Oc2ccc(Cl)cc2Cl)c(=S)[nH]1	·	3311	15	4	·	23	5
CC=CC(=O)Nc1cccc(C2=NOC3(C2)CC(C(N)=O)N(C(=O)C(c2ccccc2)c2ccccc2)C3)c1 (centres undefined)	·	·	-1	11	·	-0.8	0
COCCNC(=O)c1ccccc1NC(=O)CN(c1ccc2c(c1)OCO2)S(C)(=O)=O	-21	15685	0	-3	2	-0.8	1
O=C(NCC1CCCO1)c1cccc(NS(=O)(=O)c2ccccc2)c1 (centres undefined)	-14	?	6	8	-3	1.6	7
NS(=O)(=O)c1ccc(NC(=O)COC(=O)c2cn(-c3ccccc3)nc2-c2ccc(F)cc2)cc1	-10	2011	-3	3	6	-4.8	-14
N#Cc1ccccc1NC(=S)Nc1ccc(F)cc1	-9	4846	8	5	1	3.7	-1
COC(=O)/C(N=Nc1c(C)n(C)n(-c2ccccc2)c1=O)=C(\C)O	-7	2597	6	4	-4	3.4	-2
C=CCN1C(=O)C(CC(=O)O)SC1=Nc1ccc(N=Nc2ccccc2)cc1 (centres undefined)	-23	3751	4	-1	-1	-7.0	11
Cc1cccc(CNC(=O)C2CCC(=O)N(C3CCCCCC3)C2)c1 (centres undefined)	-16	5148	12	6	9	4.1	8
COc1ccccc1C(=O)NC(=S)Nc1ccc(NC(=O)c2ccco2)cc1	28	4095	18	9	1	0.3	15
O=C(COC(=O)/C=C/c1ccc(Cl)cc1)NC(=O)NCc1ccccc1	-4	3058	22	3	·	3.6	0
COC(=O)CCS(=O)(=O)c1ccc(Cl)cc1	-27	10759	4	-1	2	3.1	3
CC(=NNC(=O)CNC(=O)c1ccncc1)c1ccc(Cl)cc1	·	·	10	3	·	0.7	8
CN(C(=O)c1cccc(NC(=O)Cc2ccc(NC(=O)C3CCN(C(=O)c4ccccc4)CC3)cc2)c1)C1CCCC1	-3	2864	-4	-4	·	2.3	1
Cc1cc(C)c(-n2nnnc2SCC(=O)c2cccs2)c(C)c1	-1	3737	5	6	0	4.0	-6
CCNC(=S)Nc1ccc(S(=O)(=O)Nc2cc(C)nc(C)n2)cc1	-6	3795	4	11	4	5.8	6
COc1ccc2cc3c(N)nn(C(=O)Cc4c[nH]c5ccccc45)c3nc2c1	45	3849	5	-5	10	10	-6
COc1ccccc1CCC(=O)N(C)C1CCCN(Cc2ccccc2F)C1 (centres undefined)	-12	3571	-6	-1	1	3.0	8

(list continues)
SMILES	PrP 5UTR inh	Autofluor counter	Mtb hypoxia inh	Mtb hypoxia inh growth	BJeLR lethal	Sa RN4220 lethal	ugtP null kill
O=C(Cn1[nH]c(=O)c2ccccc2c1=O)OCC(=O)N1CCc2ccccc2C1	-17	9036	8	8	-3	6.6	2
CCCCCCC[N+](CC)(CC)CCCCc1ccc(Cl)cc1	-11	6279	23	35	·	95*	100*
Cc1ccc(CNC(=O)Cn2cnc(S(=O)(=O)N3CCC(C)CC3)c2)o1	-7	4411	1	-5	0	2.7	3
COc1ccc(CC/C(=N\O)C2(O)CCCCC2)cc1	-27	24221*	·	·	5	·	·
CCCCCN(C(=O)CCC(=O)OCC(=O)Nc1cccc(SC)c1)c1c(N)n(CCCC)c(=O)[nH]c1=O	-15	5822	-9	3	10	-1.4	-6
CN(C)/C=N/c1nc2nccc(-c3ccc(Cl)cc3)n2n1	-22	4353	·	·	-5	·	·
Cc1onc(-c2ccccc2)c1C(=O)N1CCN(C)CC1	-10	6890	11	13	-16	1.3	6
COc1cc(SC)ccc1C(=O)Nc1ccccc1	-42	5952	0	-5	3	1.7	1
COc1cccc(CNC(=O)CN2CCC(c3nc4ccc(C)cc4[nH]3)CC2)c1	-22	3257	-2	3	8	-1.5	-11
CCc1ccc2c(CN3CCc4cc(OC)c(OC)cc4C3)cc(=O)oc2c1	-24	2351	10	-3	-13	2.7	-1
Cc1ccc(-n2ncc3c2CC(C)(C)CC3NC(=O)CCc2cccnc2)cc1 (centres undefined)	-16	5524	5	-2	-1	0.5	3
Cc1ccc(/C=C/C(=O)NCCc2ccccc2)o1	-23	3375	-4	-9	-2	0.6	0
Cc1oc(-c2ccc(Cl)cc2)nc1CS(=O)CC(=O)N1CCC2(CC1)OCCO2 (centres undefined)	-14	?	1	2	1	-5.3	-4
O=C(O)/C=C/C(=O)NCCCc1ccccc1	-48	4586	4	2	-10	7.1	17
Cc1ccc(-n2c(C)nc3ccsc3c2=O)cc1	-1	4410	7	6	-6	3.4	7
Cc1cc(OCC(=O)Nc2ccc(F)c(F)c2)nc(C(C)C)n1	-23	8994	-7	-1	-13	1.7	-9
COc1ccccc1NS(=O)(=O)c1cc(NC(=O)C2=NNC(=O)CC2)ccc1C	-18	4961	-1	-3	·	5.8	5
O=C(CSc1nc2ccccc2[nH]1)Nc1nc(-c2ccccc2)c(-c2ccccc2)o1	-1	2216	13	10	-12	1.2	9
O=S(=O)(c1cccc(C(F)(F)F)c1)N1CCCC1c1cccnc1 (centres undefined)	-12	6018	2	-2	-11	3.4	2
COc1ccc(N2C(=O)CC(N3CCC(O)(c4ccc(Cl)cc4)CC3)C2=O)cc1 (centres undefined)	-15	16898*	16	1	-8	5.6	7
CCOC(=O)c1[nH]c(C)c(C(=O)OCC(=O)N2c3ccccc3CC2C)c1C (centres undefined)	6	19710*	11	6	5	5.8	2
COC(=O)CCCCC1SCC2NC(=O)NC21 (centres undefined)	-47	3256	0	0	-13	2.3	4
c1ccc(-c2noc(-c3cccc4ccccc34)n2)cc1	-75	3037	24	12	-8	-20	66
O=C(CCSc1ccccc1)N1CCN(C(=O)c2ccco2)CC1	-43	8423	2	6	-16	-0.1	6
CC(Sc1ccccc1)C(=O)N1CCN(S(=O)(=O)c2ccccc2)CC1 (centres undefined)	-10	5608	-5	8	3	4.9	4

(cont.)
SMILES	PrP 5UTR inh	Autofluor counter	Mtb hypoxia inh	Mtb hypoxia inh growth	BJeLR lethal	Sa RN4220 lethal	ugtP null kill
COc1ccc(-c2[nH]ncc2C=O)cc1OC	-14	2470	10	4	-1	7.1	-8
CSc1ccc(S(=O)(=O)N2CCC(C(=O)NCc3ccco3)CC2)cc1	-5	5490	8	-8	-3	0.6	0
O=C1CC2(CCCC2)C(=O)N1CN1CCN(S(=O)(=O)c2ccc(F)cc2F)CC1	-7	3737	-1	2	·	0.9	5
Cc1cnn(C(=S)NCCc2ccccc2)c1	-25	9781	-11	1	2	0.2	20
CC1(C)CC(=O)C2=C(C1)N(c1ccccc1)C(=O)CC2c1ccc(O)cc1 (centres undefined)	-8	2474	3	2	-4	-0.5	4
CSc1nc(C)cc(C)c1C(N)=O	-18	·	·	·	-1	-1.3	5
Cc1cccc(C)c1NC(=O)C(Cl)C(=O)c1ccccc1 (centres undefined)	1	5424	·	·	1	·	·
COc1ccc(NS(=O)(=O)c2cc3c(cc2C)N(C(C)=O)CCO3)cc1	-23	5949	4	-1	2	4.1	3

Outcome played no part in choosing rows. About 4% of those tested had a hit in this group.
